AF4-AF9 inh – inhibitors of AF4 peptide binding to AF9, primary screen, biochemical, AlphaScreen, biotin-AF4 peptide, FLAG-AF9, single point. inhibition, % at 10 µM. hit rate 0.47% among 350,000;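 active = every replicate reaching a set inhibition limit, whatever the replicate mean, cut at about 25% in these data; inconclusive = mean inhibition reaches that limit but some replicates miss it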;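 note: 0% = plate neutral control median and 100% = total signal loss; the record names both 10 and 1 µM as test concentration; the first replicate is given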
Target sequence (P42568 whole entry, looked up): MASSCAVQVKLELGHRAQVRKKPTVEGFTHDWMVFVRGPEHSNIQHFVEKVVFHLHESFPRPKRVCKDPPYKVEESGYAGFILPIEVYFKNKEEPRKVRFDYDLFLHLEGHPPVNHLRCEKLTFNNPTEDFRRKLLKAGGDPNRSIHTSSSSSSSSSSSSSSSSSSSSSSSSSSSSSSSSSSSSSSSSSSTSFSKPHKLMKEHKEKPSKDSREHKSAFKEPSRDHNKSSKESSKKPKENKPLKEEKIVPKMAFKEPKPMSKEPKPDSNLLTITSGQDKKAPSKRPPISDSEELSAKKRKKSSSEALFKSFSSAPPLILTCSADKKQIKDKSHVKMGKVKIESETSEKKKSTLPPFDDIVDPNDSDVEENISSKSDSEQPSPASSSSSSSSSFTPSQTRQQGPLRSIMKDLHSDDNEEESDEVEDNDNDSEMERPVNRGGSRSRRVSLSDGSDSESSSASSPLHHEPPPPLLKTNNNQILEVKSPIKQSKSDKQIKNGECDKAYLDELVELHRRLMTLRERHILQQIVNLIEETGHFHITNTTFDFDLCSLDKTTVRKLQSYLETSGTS
Bfl-1 A1 inh – caspase 3/7 activation in MEF A1-2A-BIM cells, primary screen, A1 inhibitor project, cell-based, luminescence, HTS | AID 2462, 2010 | caspase activation, % (no concentration beside the values) | Caspase-Glo 3/7 luminescence, 3 h; percent of clofoctol response, vehicle zero | hit rate 0.066% among 330,000;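 active = over half of replicate activation scores above 10%, or exactly half above 10 with the replicate mean above 10; inconclusive = replicate mean below 10 yet half the replicates above 10; inactive = over half of replicates below 10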;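 note: wells of about 30 µL received 50 nL stock; many hits fall short of the cut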
Beta cell apopt – inhibitors of cytokine-induced beta cell apoptosis, primary screen, luminescence | INS-1E cytokine-induced death, ATP luminescence, 48 h; percent of positive-control rescue, neutral wells zero | protection from apoptosis, % (no concentration beside the values) | hit rate 0.8% among 300,000 | AID 435005, 2010;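 active = all replicates at 75% or more, or half of them and the mean; inconclusive = half reach 75% but not the mean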;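 note: 0% = cytokine-treated negative control wells and 100% = positive control rescue; higher means more ATP so stronger rescue from cytokine killing; wells of about 40 µL received 100 nL stock; the first replicate is given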
UCH37 DUB inh – inhibitors of human UCH37 deubiquitinase, primary screen, biochemical, Ub-AMC cleavage, fluorescence. inhibition, % (no concentration beside the values). hit rate 0.33% among 330,000. AID 588478, 2011. Ubiquitin carboxyl-terminal hydrolase isozyme L5 (Homo sapiens), Q9Y5K5. purified proteasome/UCH37;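 active = mean of two replicates above 20%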;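 note: 0% = compound-free wells with enzyme and 100% = wells lacking proteasome; stock transfer was 100 nL into about 20 µL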
Target sequence (Q9Y5K5 whole entry, looked up): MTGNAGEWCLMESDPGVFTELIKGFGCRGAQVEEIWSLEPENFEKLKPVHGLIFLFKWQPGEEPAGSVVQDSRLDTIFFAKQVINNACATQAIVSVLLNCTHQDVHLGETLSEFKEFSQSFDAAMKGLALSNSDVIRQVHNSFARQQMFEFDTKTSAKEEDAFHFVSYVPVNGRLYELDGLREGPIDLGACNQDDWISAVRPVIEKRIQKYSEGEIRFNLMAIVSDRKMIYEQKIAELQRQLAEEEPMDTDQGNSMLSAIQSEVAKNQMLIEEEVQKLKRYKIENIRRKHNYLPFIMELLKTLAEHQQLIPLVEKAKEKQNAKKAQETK
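System: Proteasome-associated human UCH37 deubiquitinase; Input: 0.15 nM proteasome in added enzyme buffer; Also added: Ub-AMC substrate from 1 µM stock; Incubation: 30 min compound-proteasome preincubation then 25 min substrate reaction, room temperature; Detection: fluorescence, ex 355 nm, em 460 nm; Read-out: % inhibition of Ub-AMC cleavage fluorescence; Benchmarks: no-proteasome and no-compound wells.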
FGF22 binding – binders of human FGF22 protein, primary screen, FGF22 synaptogenesis inhibitor project, biophysical, thermal shift, single point; Fibroblast growth factor 22 (Homo sapiens), Q9HCT0; recombinant FGF22 thermal shift, SYPRO orange fluorescence; percent of sucrose octasulfate shift, DMSO zero; calls only at 9.99 µM; hit rate 1.5% among 340,000; AID 651658, 2012;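 active = melting point raised past a set limit in the mean and every replicate; inconclusive = no clear call; three in four hits are not shown here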
Target sequence (Q9HCT0 whole entry, looked up): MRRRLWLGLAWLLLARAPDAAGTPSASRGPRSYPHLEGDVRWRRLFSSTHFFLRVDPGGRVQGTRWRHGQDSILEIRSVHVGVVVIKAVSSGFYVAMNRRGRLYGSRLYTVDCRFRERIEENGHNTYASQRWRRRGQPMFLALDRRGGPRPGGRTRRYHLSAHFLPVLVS
T cruzi repl – inhibitors of intracellular T. cruzi growth, primary screen, luminescence, NIH3T3 host cells; T. cruzi beta-gal in NIH3T3, 90 h; AID 1885, 2009; hit rate 1.4% among 300,000; inhibition, % (test concentration not listed);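 active = mean inhibition across valid replicates above about 55%, limit read from the data; inconclusive = mean below that limit but half or more replicates reach it; inactive = mean below it, under half of replicates reach it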;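 note: signal also drops with host cell toxicity which is not excluded here; 0% = plate median of DMSO wells and 100% = zero luminescence signal; higher percent means less beta-gal luminescence so fewer parasites; stock transfer was 50 nL into about 50 µL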
Ecoli rRNA inh – reduced GFP signal of wild-type E. coli, primary screen, bacterial rRNA inhibitor project, GFP/RFP fluorescence, OD600, single point; E. coli WT GFP vs humanized-ribosome RFP mutants, 24 h; active compounds read low; DMSO median 0, no signal -100; GFP signal change (wild-type ribosome), % (test concentration not listed); hit rate 1.6% among 350,000;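 active = significant combined selectivity score with lowered wild-type GFP, culture density cut under 30%, mutant RFP and density less affected; inactive = any of these conditions unmet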; note: one replicate is shown; some compounds called inactive have numbers as strong as hits
Ecoli growth – E. coli growth inhibition, primary screen, OD600; OD600 absorbance (no concentration beside the values); hit rate 0.21% among 330,000; Escherichia coli growth, 23 h; active compounds read low; AID 1053175, 2014;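 active = OD600 absorbance below the run mean of sample wells minus 3.6 SD, in any replicate, cut at about 0.56 in these data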;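 note: stock transfer was 300 nL into about 60 µL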
Ecoli rRNA inh OD600 – second read-out of Ecoli rRNA inh, no call of its own (marks repeat the call); OD600 change, %; measured here: OD600 growth;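 optical density of the mix in the first replicate; 0 = DMSO median and -100 = no signal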
Ecoli rRNA inh RFP – also measured in Ecoli rRNA inh; calls as there; RFP signal change, %; measured here: RFP humanized mutant strains;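 first replicate; 0 = DMSO median and -100 = no signal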
The depositor's hits bear a star; i = inactive; ? = inconclusive; . = not tested or not shown; & = joins results of further samples.

Molecule	UCH37 DUB inh	Ecoli growth	AF4-AF9 inh	FGF22 binding	Ecoli rRNA inh OD600	Ecoli rRNA inh RFP	Beta cell apopt	Bfl-1 A1 inh	Ecoli rRNA inh	T cruzi repl
Nc1cccc(C(=O)OCC(=O)Nc2cccc3c2C(=O)c2ccccc2C3=O)c1	2.2	0.67	.	.	.	.	15	0.0	.	-3
O=[N+]([O-])c1ccc2nc(-c3ccccn3)[nH]c2c1	.	.	-0.2	i	2	-3.4	15	-3.1	7	-16
COc1ccccc1Nc1nnc(SCC(=O)Nc2nc(-c3ccc(F)cc3)cs2)s1	-0.6	0.75	0.3	i	-4	31	5	-0.5	-1	7
Cc1cccc2cc(CNCc3ccccc3)c(Cl)nc12	0.5	0.56	-4.2	i	-24	-4.5	4	1.6	-14	2
COc1ccc(CCNC(=O)c2ccc(CNc3c(N4CCOCC4)c(=O)c3=O)cc2)cc1OC	2.0	0.8	.	.	.	.	3	0.0	.	1
O=C(NCc1ccc2c(c1)OCO2)c1ccc(Cl)c(S(=O)(=O)N2CCOCC2)c1	4.8	0.73	5.8	i	-17	-2.3	-11	-0.8	-8	-1
Cc1ccc(-c2csc3ncnc(N4CCN(S(=O)(=O)c5cccs5)CC4)c23)cc1	0.6	0.71	.	.	.	.	19	0.8	.	.
O=C(COc1ccc2ccccc2c1Br)N1CCOCC1	2.6	0.73	.	.	.	.	-5	0.7	.	4
C[C@@H]1CCC[C@H](C)N1NC(=O)c1ccc(Cl)c(S(N)(=O)=O)c1	3.6	.	0.2	i	7	1.4	4	0.7	7	-2
O=C(NCc1ccncc1)C1CCCN(S(=O)(=O)c2cc(Cl)ccc2Cl)C1 (stereo not given)	4.5	0.65	0.1	i	-12	0.4	.	0.2	-5	-9
CN(Cc1ccccc1)S(=O)(=O)c1ccc(NC(=S)NC(=O)C2CCCC2)cc1	4.6	0.71	7.1	i	2	0.0	7	0.1	-5	46
COC(=O)c1cccc(CN2C(=O)SC(Nc3ccccc3)C2=O)c1 (stereo not given)	0.4	0.67	0.4	i	6	2.3	-2	0.3	9	2
CCOC(=O)CSc1nnc(NC(=O)c2cccc(S(=O)(=O)N3CCCCCC3)c2)s1	-42	0.77	.	.	.	.	-2	1.0	.	-5
CN1CCC(OC(=O)c2cc3cc(Cl)cc(Cl)c3oc2=O)CC1	-8.6	0.66	6.7	i	-12	-2.8	-50	0.6	-4	-7
O=[N+]([O-])c1cc(S(=O)(=O)N2CCCCC2)ccc1NCCCN1CCOCC1	-0.1	0.7	0.1	i	2	0.6	4	0.1	20	14
COC(=O)c1ccc(OC)c(Cn2c(=O)n(C)c(=O)c3ccccc32)c1	-0.1	0.65	-4.0	i	9	-1.6	.	0.2	-2	-4
CCOC(=O)c1nn(-c2ccc(F)cc2)c(-c2ccccc2)c1C(=O)c1ccccc1	-2.3	0.81	.	.	.	.	24	0.1	.	39
O=S(=O)(Nc1cc(S(=O)(=O)N2CCOCC2)ccc1NCC1CCCO1)c1ccc(F)cc1 (stereo not given)	1.9	0.71	1.6	i	2	1.3	-1	-0.6	-2	.
Cc1ccc(NC(=S)N(Cc2cccc(Br)c2)CC2CCC(C(=O)O)CC2)cc1Cl (stereo not given)	3.6	0.65	-1.5	i	-37	-10	-14	-1.0	-34	7
CCOc1cc(C(=O)NCC(=O)N/N=C/c2sccc2C)cc(OCC)c1OCC	.	.	-3.3	i	3	3.4	1	1.5	9	0
CC(=O)n1cc(/C=N/NC(=O)c2ccc(Cl)cc2)c2ccccc21	.	.	-16	i	-3	1.6	-4	0.8	1	2
COc1ccc(OC)c2[nH]c(C(=O)N/N=C/c3ccccc3O)cc12	.	.	4.1	i	-42	-6.7	96*	0.5	-13	20
Cc1ccccc1NC(=O)Cc1nc(COC(=O)c2cccc([N+](=O)[O-])c2)cs1	5.8	0.69	-0.7	i	5	-0.9	-2	-0.4	7	-12
Cc1ccc(S(=O)(=O)N2CCOCC2)cc1C(=O)NC1CCSc2ccccc21 (stereo not given)	-1.6	0.66	-3.0	i	1	2.8	.	0.8	4	6
CCOc1ccc(N2C(=O)CC(NCC#N)C2=O)cc1 (stereo not given)	0.1	0.7	-3.3	i	10	-1.1	-6	0.6	12	-8
CNC(=O)C(=O)NCC1CCCN1S(=O)(=O)c1cccs1 (stereo not given)	1.4	0.68	-16	i	5	0.5	-2	0.3	2	5
CCN(CC(=O)Nc1c(F)cccc1F)C(=O)Cc1ccc2c(c1)CCC2	2.5	0.66	7.5	i	-4	0.1	0	1.8	-1	-9
CC(C)c1nnc(NC(=O)C2CCN(C(=O)Nc3ccccc3)CC2)s1	2.5	0.62	1.4	i	7	-0.6	-8	-0.1	5	1
COc1ccc(-c2cn(-c3ccccc3)nc2C(=O)O)cc1OC	-2.3	0.66	-1.1	i	4	-1.0	-8	0.3	-5	-5
O=C(c1cccc(Cl)c1)N1CCC(c2nc3ccccc3[nH]2)CC1	.	.	-3.1	i	-5	-2.8	-5	0.3	0	-3
O=C(Nc1ccc(OC(F)(F)F)cc1)c1ccc(S(=O)(=O)N2CCOCC2)o1	2.3	0.7	-10	i	-15	-1.2	-3	0.2	2	.
O=C(O)CSc1c(O)c2ccccc2[nH]c1=O	-1.3	0.7	-3.9	i	15	6.4	5	0.6	29	-17
Fc1ccccc1-n1c(-c2ccc3ccccc3n2)n[nH]c1=S	6.7	0.69	-1.6	.	-40	-1.0	-3	0.2	-39	-3
CC1(c2nnc(-c3ccc(Cl)cc3)o2)CC(c2c(Cl)cccc2Cl)=NO1 (stereo not given)	0.1	0.66	3.4	i	-7	4.9	3	0.4	-8	-2
O=C(Nc1nc2c(F)cccc2s1)c1ccco1	3.9	0.77	-3.8	i	6	4.1	7	-6.1	-4	-20
O=C(Oc1c(-c2ccccc2)c(=O)n2c3c(cccc13)CC2)c1ccc(F)cc1	-8.6	0.62	0.9	i	.	.	-2	0.5	.	-5
CC(C)NC(=O)N(C)C[C@@H]1Oc2c(NC(=O)Nc3ccccc3)cccc2C(=O)N([C@H](C)CO)C[C@H]1C	.	.	-2.2&-2.6	i	12&2	0.2&-2.8	-4	-0.6	3&-3	.
O=C1/C(=C\c2ccc(O)cc2)SC(=S)N1Cc1ccccc1	.	.	-4.6	i	-74	-15	9	0.7	-48	6
CCN(CC)S(=O)(=O)c1ccc(N2CCOCC2)c(NC(=O)C23CC4CC(CC(Cl)(C4)C2)C3)c1	0.5	0.72	.	.	.	.	19	0.0	.	32
CN(C)C1=NC[C@H](Cc2ccccc2)N1CC1CCCCCC1	-0.6	.	4.4	i	-5	1.4	-3	0.2	-1	.
CC(C)(C)C(=O)n1nc(-c2ccccc2)oc1=O	1.3	0.66	.	.	.	.	-7	0.2	.	-8
NC(=O)[C@@H]1CCCCNc2c(F)cc([N+](=O)[O-])cc2C(=O)N[C@@H](CCCN=C(N)N)C(=O)NCC(=O)N1	4.4	.	20	i	-2	5.4	-4	0.4	0	-4
Cc1ccc([C@@H]2CC=C(C(=O)O)[C@H](c3ccccc3)N2S(=O)(=O)c2ccccc2C)cc1	1.7	0.67	-3.5	.	-28	-5.1	.	.	-12	.
CCOC(=O)c1ccccc1NC(=O)COC(=O)CCC1CCCC1	2.8	0.67	-4.0	i	.	.	-3	1.0	.	.
O=C(Nc1ccc(F)cc1F)c1cc(=O)n(-c2ccccc2)c(=O)[nH]1	0.4	0.73	0.0	i	11	-2.9	-3	-0.3	10	-18
O=C(O)C1CCCCC1C(=O)Nc1cccc(Br)c1 (stereo not given)	2.6	0.7	-11	i	2	-3.6	-3	0.5	2	.
COCCNC(=O)c1cnn2c1NC(c1ccco1)CC2C(F)(F)F (stereo not given)	1.8	0.61	.	.	.	.	-5	0.0	.	2
O=C(NCCN1CCCc2ccccc21)C1CCC(=O)N(CCc2ccccc2)C1 (stereo not given)	-16	0.7	-2.3	i	7	0.4	1	?	1	-12
COc1ccc(N2CC(=O)N(c3ccc(OC)c(OC)c3)CC2=O)cc1OC	1.7	0.74	.	.	.	.	-1	-0.6	.	-20
Cc1cccc(OCC(=O)NCc2ccncc2)c1C	6.1	0.69	-5.2	i	-2	-0.1	-1	0.2	6	-7

(continued)
Molecule	UCH37 DUB inh	Ecoli growth	AF4-AF9 inh	FGF22 binding	Ecoli rRNA inh OD600	Ecoli rRNA inh RFP	Beta cell apopt	Bfl-1 A1 inh	Ecoli rRNA inh	T cruzi repl
CCN1C(=O)CC(N2CCN(c3cccc(OC)c3)CC2)C1=O (stereo not given)	3.1	0.74	-0.4	i	11	3.7	-4	-0.1	8	-3
CCCOc1ccc(C2=CSC3=NCCN23)cc1[N+](=O)[O-]	6.3	0.66	5.5	i	13	-0.2	-4	-0.3	-1	22
COc1ccc(C(=O)NCc2nnc(SCC(=O)NCc3ccc(F)cc3)o2)cc1	2.2	0.67	.	.	.	.	-4	0.7	.	5
CCOc1ccc(S(=O)(=O)Nc2ccc(OC)nc2)cc1	4.7	0.69	0.5	i	-4	3.9	.	0.5	1	-7
c1ccc2c(c1)Nc1ccncc1S2	-1.2	0.59	6.2	i	.	.	-10	-1.1	.	-2
COc1cccc(CN2CCC(Oc3ccc(C(=O)N4CCCCC4)cc3)CC2)c1	-1.7	0.7	2.1	i	0	-1.9	3	1.6	-1	8
Cc1nc(SC2CCOC2=O)c2c(C)c(C)sc2n1 (stereo not given)	0.8	0.71	.	.	.	.	-1	3.0	.	-22
Cc1ccc(N2CCN(/N=C/c3ccccc3[N+](=O)[O-])CC2)cc1	.	.	6.1	i	7	-0.1	7	0.2	7	9
Cc1cc(NC(=O)c2ccc(Br)o2)ccc1NC(=O)c1ccco1	3.2	0.66	-5.0	i	-12	3.2	3	-7.2	-10	3
COc1ccc(C(=O)Nc2ccc(C)cn2)c(OC)c1	2.6	0.7	.	.	.	.	.	-6.3	.	9
CCn1c(CN(C)c2ccccc2)nc2ccccc21	1.1	0.61	-1.0	i	-10	1.1	-2	0.4	-9	6

Source: PubChem BioAssay

A portion of the library, so the mix of outcomes need not match the whole.
